Screens from PubChem.
B2AR ag – activates human beta-2 adrenergic receptor causing internalization; Am2.2-beta2AR cells, FAP receptor internalization, flow cytometry; reference of the scale not given here; P07550; 340,000 tested, 0.43% active; response, % (test concentration not listed);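 active = response above a set limit, near 3 SD of response in nonfluorescent compounds, cut at about 42% in these data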;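 note: stock transfer was 100 nL into about 11 µL; a reference agonist was the positive control; negative values mostly stem from fluorescent compounds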
Target sequence (P07550 whole entry, looked up): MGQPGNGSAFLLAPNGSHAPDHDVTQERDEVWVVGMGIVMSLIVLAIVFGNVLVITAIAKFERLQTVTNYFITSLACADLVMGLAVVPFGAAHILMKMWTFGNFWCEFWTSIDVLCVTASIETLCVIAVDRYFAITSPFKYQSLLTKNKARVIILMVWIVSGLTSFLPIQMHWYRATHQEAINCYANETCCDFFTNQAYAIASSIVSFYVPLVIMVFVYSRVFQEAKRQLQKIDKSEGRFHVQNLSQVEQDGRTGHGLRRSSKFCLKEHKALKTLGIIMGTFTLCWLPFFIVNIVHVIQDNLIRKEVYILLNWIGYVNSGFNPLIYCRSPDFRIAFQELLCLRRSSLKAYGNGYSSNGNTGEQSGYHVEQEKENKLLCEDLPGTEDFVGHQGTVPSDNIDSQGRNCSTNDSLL
LANA-H2B inh – blocks KSHV LANA binding to histone H2A/H2B; 320,000 tested, 0.6% active; inhibition, % (test concentration not listed); Q9QR71; cell-free LANA-H2A/H2B peptide, fluorescence polarization; in the data active = inhibition mostly above about 10%, no sharp cut-off; inactive = mostly below about 6.7%;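 note: stock transfer was 7.5 nL into about 10 µL; 0% = median of vehicle wells and 100% = median of positive control wells; one replicate is shown; the record names a cut of 25% in any replicate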
FGF22 binding – binders of recombinant human FGF22 by thermal shift; calls only at 9.99 µM; 340,000 tested, 1.5% active; SYPRO orange fluorescence; percent of sucrose octasulfate shift, DMSO zero; Q9HCT0;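 active = melting point raised past a set limit in the mean and every replicate; three in four hits are not shown here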
E coli growth – E. coli growth inhibition. 330,000 tested, 0.21% active. AID 1053175. OD600 absorbance (test concentration not listed). Escherichia coli growth, OD600, 23 h; hits give low values;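 active = OD600 absorbance below the run mean of sample wells minus 3.6 SD, in any replicate, cut at about 0.56 in these data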;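 note: stock transfer was 300 nL into about 60 µL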
ALR H2O2 inh – human ALR oxidase inhibition via reduced H2O2 | inhibition, % (test concentration not listed) | AID 485317 | purified ALR, DTT oxidation, H2O2 HRP-luminol luminescence | P55789 | 290,000 tested, 3.8% active;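 active = mean and each replicate at 75% or more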;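 note: stock transfer was 7.5 nL into about 7.5 µL; 0% = neutral wells and 100% = wells with inactivated enzyme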
UCH37 inh – human UCH37 deubiquitinating enzyme inhibition; Q9Y5K5; purified proteasome/UCH37, Ub-AMC cleavage fluorescence; inhibition, % (no concentration beside the values); 330,000 tested, 0.33% active; AID 588478;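 active = mean of two replicates above 20%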;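 note: 0% = compound-free wells with enzyme and 100% = wells lacking proteasome; stock transfer was 100 nL into about 20 µL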
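system = Proteasome-associated human UCH37 deubiquitinase | amount = 0.15 nM proteasome as dispensed | medium = pH 7.4 Tris-HCl (50 mM) with ovalbumin, ATP-MgCl2, DTT | incubation = 30 min preincubation with enzyme, 25 min cleavage at room temperature | detection = AMC fluorescence 355/460 nm | read-out basis = percent inhibition | controls = no-proteasome and no-compound wells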
HNF4A DNA FP – change in binding of human HNF4 alpha to DNA | 360,000 tested, 0.3% active | activity change, % at 10 µM | HNF4a-FITC DNA binding, fluorescence polarization, 1 h; in the data active = activity change above about 30%, passing the limit was not always enough;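 note: controls were the assay level and a saturating level of protein; the project sought stronger binding though the title names inhibitors; some compounds called inactive have numbers as strong as hits; positive values seem to mean higher polarization but the record does not say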
Target sequence (P41235 whole entry, looked up): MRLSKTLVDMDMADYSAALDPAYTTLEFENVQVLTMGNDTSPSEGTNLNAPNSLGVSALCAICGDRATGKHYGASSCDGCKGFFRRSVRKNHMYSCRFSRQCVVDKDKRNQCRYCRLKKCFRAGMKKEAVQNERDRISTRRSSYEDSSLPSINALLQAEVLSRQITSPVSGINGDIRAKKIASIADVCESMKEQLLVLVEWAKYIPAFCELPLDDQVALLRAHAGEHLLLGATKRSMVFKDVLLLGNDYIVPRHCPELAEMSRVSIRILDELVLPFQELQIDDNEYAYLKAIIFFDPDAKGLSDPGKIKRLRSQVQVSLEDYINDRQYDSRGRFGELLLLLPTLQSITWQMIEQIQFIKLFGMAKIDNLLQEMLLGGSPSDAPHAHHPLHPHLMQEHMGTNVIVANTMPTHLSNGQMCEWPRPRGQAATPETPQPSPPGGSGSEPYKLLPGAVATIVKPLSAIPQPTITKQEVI
The depositor's hits bear a star; i = inactive; x = no result given; + = active, no number. These rows are one share of the data (hit frequency here may not be typical).

Every second line gives: HNF4A DNA FP	E coli growth	FGF22 binding	UCH37 inh	B2AR ag	LANA-H2B inh	ALR H2O2 inh
1. CCOc1ncccc1C(=O)OCC(=O)Nc1cccc(S(N)(=O)=O)c1
→ -3.2	0.662	i	5.0	-3.6	0.0	1.6
2. Cc1c(C(=O)NCc2ccccn2)oc2ccccc12
→ -4.1	0.705	x	4.4	-1.2	2.6	-19.4
3. COCCNCCCCSc1ccc(Cl)cc1
→ 1.3	0.692	i	2.4	3.9	3.6	-5.3
4. CCOC(=O)C1(Cc2ccccc2)CCN(Cc2cccc(OC)c2O)CC1
→ 8.0	0.616	i	0.6	7.6	-0.3	22.1
5. O=C(O)c1ccc(/C=C2\SC(=S)N(NC(=O)c3ccccc3[N+](=O)[O-])C2=O)cc1
→ -2.0	0.646	i	16.8	0.8	1.7	7.7
6. CCOC(=O)C1ON2CCCCC2C1(O)C(F)(F)F (centres undefined)
→ -1.1	0.692	x	0.1	-2.1	3.8	-3.0
7. COc1c(O)ccc2cnn(-c3ccccc3C)c(=O)c12
→ 3.8	0.682	x	3.8	1.7	0.5	x
8. Cc1ccc(C(=O)N/C(=C\c2ccccc2)C(=O)OCc2ccccc2)cc1
→ 1.3	0.704	x	-18.0	5.5	x	x
9. Cc1cc(/C=C2\NC(=O)NC2=O)c(C)n1-c1ccc(N2CCOCC2)cc1
→ -2.9	0.642	i	8.9	1.8	4.2	55.2
10. CCOC(=O)c1c(NC(=O)COC(=O)c2nccnc2N)sc2c1CCC2
→ 4.2	0.72	i	-34.3	11.0	4.8	8.8
11. CCN(CC)CCNC(=O)c1ccc(NC(=O)c2cc(S(=O)(=O)N3CCCCC3)ccc2N2CCOCC2)cc1
→ -2.2	0.676	i	4.3	5.4	x	x
12. S=c1[nH]nc(CCc2ccccc2)n1Cc1ccccc1
→ 0.9	0.724	x	-0.7	3.0	-7.2	-0.1
13. O=C(NCCc1ccccc1)c1cccc(S(=O)(=O)NCc2ccccc2)c1
→ -1.5	0.705	i	1.0	7.4	2.7	-2.3
14. COc1cccc(NC(=O)C(Cc2ccccc2)n2cccc2)c1 (centres undefined)
→ 1.4	0.685	i	5.6	-8.5	7.4	0.0
15. COc1ccc([N+](=O)[O-])cc1NC(=O)C(C)OC(=O)C1CCC1 (centres undefined)
→ -0.1	0.616	i	3.3	-12.0	-5.1	-2.3
16. Cc1cc(C)c(OCC(=O)Nc2ccc(NC(=O)c3ccco3)cc2)c([N+](=O)[O-])c1
→ 0.5	0.729	x	2.5	-20.4	2.6	12.1
17. Cc1c(C(=O)Nc2ccncc2)sc2nc(-c3ccccc3)cn12
→ 4.7	0.718	i	-2.8	-6.1	-6.3	-7.8
18. CCOc1ccccc1C1C(C#N)=C(N)Oc2cc(N)ccc21 (centres undefined)
→ -2.6	0.68	x	-5.1	1.7	-5.7	98.3*
19. Cc1cc(C)cc(NC(=S)NCC2CCN(C(C)c3ccccc3)C2)c1 (centres undefined)
→ -2.9	0.667	i	6.9	3.5	1.4	3.6
20. NCCCC[C@H]1CNC(=O)C(=O)N1CCC12CC3CC(CC(C3)C1)C2
→ -1.5	x	i	1.5	5.2	4.2	1.8
21. Cc1cc(C)cc(N2C(=O)CC(c3ccccc3)CC2=O)c1
→ -2.4	0.615	i	-1.8	-8.2	0.6	-2.3
22. Cc1ccc(S(=O)(=O)N2CC(=O)Nc3ccccc32)cc1
→ 1.7	0.676	i	-0.3	2.9	5.8	-6.3
23. CC1CC(C)(C)NC2(CCCC2)N1 (centres undefined)
→ -2.8	0.671	i	0.2	1.7	x	x
24. Nc1ccc2nc(SCC(=O)N3CCN(c4ccccc4)CC3)sc2c1
→ 0.7	0.647	i	6.6	-3.1	0.1	x
25. O=c1ccc(-c2n[nH]c(=S)n2-c2ccc(F)c(Cl)c2)n[nH]1
→ -1.0	0.723	i	0.9	0.9	-2.1	85.9*
26. CCOC(=O)c1ccc(-c2ccc(/C=N/NC(=O)CN(c3ccccc3Br)S(C)(=O)=O)o2)cc1
→ -1.5	x	i	x	7.0	5.7	-7.8
27. CCOc1[nH]n(-c2ccc(Cl)cc2)c(=O)c1C=Nc1ccc(O)cc1
→ -5.5	0.635	x	2.9	6.0	-0.3	-3.6
28. COC(=O)Cc1ccc(OCC(=O)Nc2ccc(OC(F)(F)F)cc2)cc1
→ 3.0	0.677	i	2.2	-3.3	2.2	-34.8
29. COCCNC(=O)/C(C#N)=C/c1cccc(/C=C(\C#N)C(=O)NCCOC)c1
→ 5.0	0.683	i	2.8	1.9	x	-1.4
30. O=C(O)c1ccc(Cl)c(S(=O)(=O)Nc2ccc(OCc3ccccc3)cc2)c1
→ 2.8	0.698	x	2.7	-8.0	-4.4	10.2

Other results follow.
Every second line gives: HNF4A DNA FP	E coli growth	FGF22 binding	UCH37 inh	B2AR ag	LANA-H2B inh	ALR H2O2 inh
31. Cc1cnc(NS(=O)(=O)c2ccccc2)c(C)n1
→ 10.3	0.685	i	1.7	5.6	-3.7	-6.8
32. O=S(=O)(c1ccccc1)N1CCN=C1SCc1ccccc1
→ 0.0	0.663	i	1.8	3.8	-2.9	-11.0
33. O=C(COc1ccccc1F)Nc1ccc(S(=O)(=O)N2CCCC2)cc1
→ 1.4	0.667	i	5.7	-2.7	2.5	x
34. O=S(=O)(Nc1ccccc1O)c1ccc(-c2ccccc2)cc1
→ -2.2	0.583	i	-2.5	15.9	-2.7	5.5
35. O=C1NC2(CCCCCC2)Oc2ccccc21
→ 7.6	0.686	x	5.7	0.8	-1.1	-12.9
36. CCC(=O)Nc1cccc(C(=O)/C=C/c2ccccc2)c1
→ 2.6	0.706	x	5.5	54.0*	-0.4	11.1
37. O=C(O)CC1C(=O)NCCN1C/C=C/c1ccccc1 (centres undefined)
→ 1.0	0.727	i	0.6	-1.5	-6.3	-53.3
38. COC(=O)c1c(C)[nH]c(C=O)c1-c1ccccc1
→ -0.3	0.713	i	2.6	0.1	3.2	-3.0
39. O=C(CCc1ccccc1)NCc1cccnc1
→ 1.3	0.752	x	1.1	-6.2	-4.0	-10.0
40. O=C(O)C(Oc1ccc2c(-c3ccccc3)cc(=O)oc2c1)c1ccccc1 (centres undefined)
→ -0.2	0.664	i	2.2	-5.4	1.5	5.1
41. CC(C)(CN1CCN(c2ccccc2)CC1)NS(=O)(=O)c1ccccc1
→ 0.3	0.619	x	2.2	2.0	0.3	x
42. COc1cccc(C(=O)Nc2ccc(C(=O)O)cc2)c1
→ 2.9	0.691	x	3.4	7.2	3.6	-3.7
43. COc1cccc(C(=O)N2CCC(n3nccc3NC(=O)CCOc3ccccc3)CC2)c1
→ 0.6	0.728	i	0.5	3.7	3.7	-33.1
44. O=C(Nc1nnc(CCc2ccccc2)s1)c1cccs1
→ 0.0	0.797	x	-1.7	-4.3	2.3	3.3
45. CCC1=C(OC(=O)N(CC)CC)N2C(=O)OC(=NCC3CC3)[C@]2(Cc2ccccc2)[C@H]2C1=CC[C@H]1C(=O)N(C)C(=O)[C@H]12
→ -3.7	x	i	1.5	-1.1	-0.6	-34.4
46. O=C(COC(=O)c1ccc(Br)o1)NC12CC3CC(CC(C3)C1)C2
→ 1.2	0.691	i	0.4	-8.7	-1.6	-1.8
47. CN1C(=O)C(C(=O)NC(C)(C)C)C2c3ccccc3OC13CCCCC23 (centres undefined)
→ 2.7	0.671	x	3.2	2.5	2.4	-4.5
48. Cc1ccc(OCC(=O)O/N=C(\N)Cc2ccc(Cl)cc2)cc1
→ 2.3	0.677	x	3.3	3.0	5.1	-1.6
49. COC(=O)Oc1ccc(/C=N/NC(=O)CN(c2ccccc2Br)S(C)(=O)=O)cc1OC
→ -1.7	x	i	x	0.4	5.2	39.5
50. O=C(CC1SC(=O)NC1=O)Nc1ccc(Cl)cc1 (centres undefined)
→ 0.1	0.722	+	2.0	-2.2	0.1	2.9
51. C#CCOCCOCCOCCNc1nc(N2CCN(C(=O)Cn3cc(CCCN=C(N)N)nn3)CC2)nc(N2CCN(C(=O)[C@H](CCCCN)n3cc(CCCC)nn3)CC2)n1
→ 3.7	x	i	-4.2	8.4	0.0	x
52. O=C(O)Cc1ccc(NS(=O)(=O)c2c(Cl)cccc2Cl)cc1
→ -3.6	0.689	i	3.6	-1.2	-8.3	-3.1
53. CCCc1noc(-c2ccc(-c3ccccc3)cc2)n1
→ -35.1	0.714	x	-0.2	2.6	-1.1	-6.3
54. Cc1cccc(CN2CCCC(C(=O)c3ccc4c5c(cccc35)CC4)C2)n1 (centres undefined)
→ 3.2	0.659	i	-72.4	9.0	-4.5	-13.2
55. Cc1cccn2c(=O)c3cc(C(=O)NCc4ccc(F)cc4)c(=N)n(CCCN4CCOCC4)c3nc12
→ -0.5	0.704	i	-344.4	-5.3	x	x
56. CC(C)c1ccc(COC(=O)CN2C(=O)NC3(CCCCC3C)C2=O)cc1 (centres undefined)
→ -2.3	0.642	i	2.3	-2.7	x	x
57. COc1ccc(/C=C/C(=O)N2CCN(c3ccccc3)CC2)cc1S(=O)(=O)N1CCOCC1
→ 1.6	0.672	x	6.9	6.4	0.7	45.4
58. O=C(c1ccc(S(=O)(=O)Nc2ccccc2)cc1)N1CCCCCCC1
→ 1.0	0.705	i	0.5	1.9	-2.4	2.7
59. COc1ccccc1NNC(=O)c1cccnc1Oc1ccccc1
→ 3.6	0.673	i	4.5	-1.5	-4.2	24.1
60. O=C(Nc1cccc(Cl)c1Cl)C1CCN(C(=O)c2cccs2)CC1
→ 1.3	0.714	i	3.2	-0.4	-0.1	-0.3

Marked active in ALR H2O2 inh (from the list above):
cpd | mol | HNF4A DNA FP | FGF22 binding | UCH37 inh | B2AR ag | LANA-H2B inh | ALR H2O2 inh
18 | CCOc1ccccc1C1C(C#N)=C(N)Oc2cc(N)ccc21 (centres undefined) | -2.6 | x | -5.1 | 1.7 | -5.7 | 98.3*
25 | O=c1ccc(-c2n[nH]c(=S)n2-c2ccc(F)c(Cl)c2)n[nH]1 | -1.0 | i | 0.9 | 0.9 | -2.1 | 85.9*

Other records
Every second line gives: HNF4A DNA FP	E coli growth	FGF22 binding	UCH37 inh	B2AR ag	LANA-H2B inh	ALR H2O2 inh
61. COc1ccc2oc(C(=O)N3CCN(C(=O)c4ccco4)CC3)c(C)c2c1
→ 2.0	0.684	i	1.1	-5.7	19.9*	-3.3
62. Cc1ccccc1OCC(=O)Nc1nnc(COc2ccccc2)s1
→ -4.0	0.699	i	0.7	-4.9	-2.6	-1.9
63. CC(C)(C)OC(=O)NCCCCCNC(=O)c1[nH]cnc1C(=O)N[C@@H](CCCCNC(=O)OC(C)(C)C)C(=O)OC(C)(C)C
→ -0.1	x	x	3.1	4.2	-2.1	-5.8
64. CN(CCCN1CCOCC1)C(=O)c1cc(COc2c(F)cccc2F)on1
→ 0.2	0.7	i	4.6	-7.3	-2.1	-0.3
65. CC(C)N1CCc2c(sc(NC(=O)c3nc4ccccc4s3)c2C(N)=O)C1
→ 18.3	0.694	i	8.6	-181.1	-1.6	35.4
66. O=C(Nc1ccc(Cn2cccn2)cc1)c1ccc(COc2ccc(Br)cc2)cc1
→ -1.0	0.68	x	1.5	5.0	1.5	-4.3
67. CC(C)(C)OC(=O)N1Cc2ccccc2C[C@H]1C(=O)NCC(=O)NC1CCCC1
→ -1.2	0.651	i	0.8	1.5	-1.5	4.2
